# VACV Venus inh = qHTS for Stage-Specific Inhibitors of Vaccinia Orthopoxvirus: Venus Reporter Primary qHTS; Vaccinia virus Venus reporter expression, fluorescence; Potency, µM (highest dose often 36.5 µM), for the others: at the top dose activity change, negative = inhibition, most hits filed as inhibitors; actives 0.46% (n = 330,000); active means well fitted inhibition curve with a large enough effect; inconclusive means small, poorly fitted or top-dose-only effect; inactive means no such curve, though single readings can be large or run the other way; tested in A549 cells; note: nearly all actives have a fitted effect of over 30% in size; inactives centre near -10
# VACV mCherry inh = qHTS for Stage-Specific Inhibitors of Vaccinia Orthopoxvirus: mCherry Reporter Primary qHTS | Vaccinia virus mCherry reporter infection, fluorescence; about a quarter of the inactives have no number | Potency, µM (highest dose often 36.5 µM), for inactives: at the highest dose activity change, negative = inhibition, actives largely listed as inhibitors | actives 0.63% (n = 310,000) | AID 720579, 2013; active = well fitted inhibition curve with a large enough effect; inconclusive = small, poorly fitted or top-dose-only effect; inactive = no such curve, though single readings can be large or run the other way; tested in A549 cells; note: nearly all actives have a fitted effect of over 35% in size; inactives centre near -10
# An asterisk follows results filed as active; i = inactive; ? = inconclusive; . = not tested or not shown; & = joins results of further samples. % is set by controls: 0 for no effect and ±100 for the full control effect; potency is the fitted concentration of half-maximal effect.
molecule | VACV Venus inh | VACV mCherry inh
CCN(CC)CCCC(C)Nc1c2ccc(Cl)cc2nc2ccc(OC)cc12 (centres undefined) | ? | -5%
COc1cccc(NC(=O)CCNS(=O)(=O)c2ccc3c(c2)oc(=O)n3C)c1 | -20%&-10% | -7%
O=C1CN(C(=O)CNC(=O)c2cccc(Cl)c2)c2ccccc2N1 | -13% | -26%
N#Cc1ccccc1OCC(=O)N(Cc1nnc(-c2ccccc2Cl)o1)C1CC1 | -5% | -12%
CCc1ccccc1NC(=S)N(CCN1CCOCC1)Cc1ccccc1F | -6% | -20%
Cc1noc(C)c1CSCC(=O)Nc1nc2ccccc2s1 | -14% | -11%
CN1CCN(C(=O)CN2C(=O)CC(C)(C)S(=O)(=O)c3ccccc32)CC1 | -2% | -15%
CC(=O)Nc1ccc(C(=O)n2cnc3cc(C)c(C)cc32)cc1 | -8% | .
Nc1ccc2c(c1)C(=O)c1cc(N)c(Cl)cc1-2 | -27% | ?
COc1ccc(C(C(=O)NC2CCCC2)N(C(=O)c2snc(C(N)=O)c2N)C2CCCC2)cc1OC (centres undefined) | 1% | 0%
Cc1cc(C)c2c(=O)cc(C(=O)Nc3ccccc3Cl)oc2c1 | -3% | -11%
CCOC(=O)NC(c1cccc(Cl)c1)C1CCCCCC1=O (centres undefined) | -11% | -13%
COc1ccc(NC(=O)c2ccc(=O)oc2)cc1 | -14% | -6%
C=CCN1C(=O)c2ccc(C(=O)N(C)CC(=O)Nc3c(C)cccc3C)cc2C1=O | -17% | -4%
CSCCC(C(=O)NC1CCCC1)n1c(C2CCCC2)nc2ccccc21 (centres undefined) | -1% | 9%
CC1(c2ccccc2)CC(C)(C)N(C(=O)c2cc([N+](=O)[O-])cc([N+](=O)[O-])c2)c2ccccc21 (centres undefined) | -18% | -6%
COc1ccccc1-c1nc(SCC(=O)Nc2ccccc2)n[nH]1 | -18% | -4%
O=C(Nc1nnc(-c2ccccc2Cl)s1)C1CCN(S(=O)(=O)c2ccc(Cl)cc2)CC1 | -20% | -15%
O=c1cc(CN2CCCCC2)c2c(ccc3ccccc32)o1 | 6% | 1%
N#C/C(=C\c1ccc(O)cc1)C(=O)O | -18%&0% | 10%
OC(CNCCN1CCNCC1)Cc1ccccc1 (centres undefined) | -13% | i
Cc1ccccc1NC(=O)c1cc2c(=O)n3cccc(C)c3nc2s1 | -8% | -12%
CC(=O)Nn1cnc2c(c1=O)C1(CCCC1)Cc1ccccc1-2 | -16% | -18%
O=c1nc2sc3ccccc3n2c(=O)n1-c1cccc(Cl)c1 | -13% | -2%
CCOC(=O)C1(CCCc2ccccc2)CCN(C(=O)C2=C(C)OCCO2)CC1 | -18% | -11%
CCOC(=O)c1c(N)sc2c1CCSC2 | -28% | .
O=C(COCc1cc(-c2cccs2)on1)NCc1ccc(Cl)cc1 | -16% | i
CCC(=O)c1ccc(OC(=O)c2ccc(Br)o2)cc1 | 29% | -9%
COc1ccc(NC(=O)CSc2cn(CC(=O)N3CCCCC3)c3ccccc23)c(OC)c1 | -5% | -6%
O=C1N(Cc2cccnc2)C[C@@H]2C[C@@H](c3ccc4nonc4c3)N3CCC[C@@]123 | 2% | i

# The closing 3 entries of the part above come first, to join the parts.
molecule | VACV Venus inh | VACV mCherry inh
CCC(=O)c1ccc(OC(=O)c2ccc(Br)o2)cc1 | 29% | -9%
COc1ccc(NC(=O)CSc2cn(CC(=O)N3CCCCC3)c3ccccc23)c(OC)c1 | -5% | -6%
O=C1N(Cc2cccnc2)C[C@@H]2C[C@@H](c3ccc4nonc4c3)N3CCC[C@@]123 | 2% | i
COc1ccc(/C=N/NC(=O)Nc2nonc2N)cc1 | -26% | .
COc1ccc(-c2ccc(C(=O)NCc3ccc(N(C)C)cc3)c3occc23)c(C)c1 | -8% | 9%
O=C(c1cc(S(=O)(=O)N2CCOCC2)ccc1Cl)N1CCc2ccccc2C1 | -12% | i
COc1ccc(NC(=S)NC(NC(=O)c2ccc(Cl)cc2Cl)C(Cl)(Cl)Cl)c([N+](=O)[O-])c1 (centres undefined) | ? | -25%
CCCc1nn2c(=O)cc(COC(=O)c3ccc(NC(=O)COc4ccccc4F)cc3)nc2s1 | -7% | -8%
CC(=O)Nc1ccc(S(=O)(=O)Nc2ccc(S(=O)(=O)Nc3nc(C)cc(C)n3)cc2)cc1 | -11% | ?
Fc1ccc(/C=N/N2CCN(Cc3ccccc3)CC2)cc1 | -14% | -4%
COc1cc(CN2C[C@@H](CO)O[C@@H](n3cnc4c(NCCCO)ncnc43)C2)cc(OC)c1OC | -5% | -12%
CCCNC(=O)C1CCN(c2ncnc3c2nc2n3CCCCC2)CC1 | -12% | i
Cn1cnc([N+](=O)[O-])c1C(=O)Nc1cccc([N+](=O)[O-])c1 | -23% | ?

# 5 compounds picked at random from those above, as already listed:
molecule | VACV Venus inh | VACV mCherry inh
CC(=O)Nc1ccc(S(=O)(=O)Nc2ccc(S(=O)(=O)Nc3nc(C)cc(C)n3)cc2)cc1 | -11% | ?
O=C(c1cc(S(=O)(=O)N2CCOCC2)ccc1Cl)N1CCc2ccccc2C1 | -12% | i
Cn1cnc([N+](=O)[O-])c1C(=O)Nc1cccc([N+](=O)[O-])c1 | -23% | ?
CCCc1nn2c(=O)cc(COC(=O)c3ccc(NC(=O)COc4ccccc4F)cc3)nc2s1 | -7% | -8%
COc1ccc(NC(=S)NC(NC(=O)c2ccc(Cl)cc2Cl)C(Cl)(Cl)Cl)c([N+](=O)[O-])c1 (centres undefined) | ? | -25%

# The list continues.
molecule | VACV Venus inh | VACV mCherry inh
CC1(C(=O)NS(=O)(=O)c2ccc(C#N)cc2)CCN1C(=O)c1cccc2ccccc12 (centres undefined) | -11% | 4%
O=C1C2CCCN2C(c2cccc(Br)c2)N1c1ccc(F)cc1 (centres undefined) | 0% | -12%
COC(=O)/C(C#N)=C/c1c(N2CCN(Cc3ccc4c(c3)OCO4)CC2)nc2c(C)cccn2c1=O | -5% | i
CCOC(=O)N1CCN(c2c(-c3ccc(C(C)C)cc3)c(=O)c2=O)CC1 | -16% | -14%
CC(C)C(C(=O)NC1CCCC1)N1CCC(O)(c2ccc(Cl)cc2)CC1 (centres undefined) | -16% | -8%
CCOC(=O)c1sc2nc(NC(=O)COc3ccccc3)sc2c1C | -6% | -18%
COc1ccc(C(=O)Oc2cccc3cccnc23)cc1S(=O)(=O)N1CCOCC1 | -20% | -25%
CS(=O)(=O)c1ccc2nc(NC(=O)CCNC(=O)c3ccccc3Cl)sc2c1 | -15% | -5%
O=C(O)c1ccc(NC(=S)NC(=O)c2ccc3ccccc3c2)cc1 | -10% | -17%
CCC(=O)N1CCc2cc(S(=O)(=O)NCCC(=O)NCc3ccc(OC)cc3)ccc21 | -13% | -10%
Cc1c(Br)c(C(F)(F)F)nn1CC(=O)N(C)C1CCCCC1 | -2% | i
Cc1ccc(S(=O)(=O)N2[C@@H](c3ccc(F)cc3)C(C(=O)O)=CC[C@H]2c2ccc3c(c2)OCO3)cc1 | -11% | -2%
Cc1ccc(/C=N/Nc2nc3ccccc3[nH]2)s1 | ? | -11%
CC(C)CCNC(=O)c1nn(Cc2ccccc2)c(=O)c2ccccc12 | -2% | -6%
COc1ccc(NC(=O)C2CCCN(S(=O)(=O)c3ccc4c(c3)CCCN4C(C)=O)C2)cc1 (centres undefined) | -25%&-17% | -13%&-13%
Cc1cccc(NC(NC(=O)Cc2ccccc2)C(Cl)(Cl)Cl)c1 (centres undefined) | -22% | -22%
O=C(O)/C(=C\c1ccc(C(F)(F)F)cc1)c1ccc(S(=O)(=O)N2CCCC2)s1 | -14% | -15%
O=C(NCCS(=O)(=O)N1CCN(c2ccccc2)CC1)C1CCCC1 | -10% | i
CC(C)CCN1CC(C(=O)N2CCN(c3ccc(F)cc3)CC2)CC1=O (centres undefined) | -15% | .
Cc1cc2nc[nH]c(=O)n2n1 | -8% | -11%
CCC(=O)N1CCc2cc(Br)cc(S(=O)(=O)CCC(=O)N(CC)CC)c21 | 11% | i
CCOc1cccc(C(=O)NNC(=O)CCC(=O)O)c1 | 0% | -7%
N/C(=N\OC(=O)c1cccc(Cl)c1)c1cccnc1 | -5% | .
CCC(=NCCO)c1c(O)n(-c2ccccc2)c(=O)[nH]c1=O | -2% | .
O=C(O)c1ccccc1SCC(=O)N1CCOCC1 | -9% | -19%
COc1ccc(C(=O)Nc2ccccc2N2CCN(C(=O)c3ccccc3)CC2)cc1Br | ? | ?
COc1ccc(C(CNC(=O)c2cc3ccccc3cc2OC)N2CCCC2)cc1 (centres undefined) | -25% | -5%
O=c1[nH]c(NC2CCN(S(=O)(=O)c3ccccc3C(F)(F)F)CC2)nc2c1CCCC2 | -30% | -22%
O=C(CSc1nnc(-c2cccnc2)n1Cc1ccco1)Nc1cccc(O)c1 | -9% | -17%
c1ccc(-n2cccc2)c(N2CCCCC2)c1 | 3% | i

# As entered above.
# VACV mCherry inh result of O=C(O)c1ccc(NC(=S)NC(=O)c2ccc3ccccc3c2)cc1 stands at -17%
# VACV Venus inh result of COc1ccc(NC(=O)CSc2cn(CC(=O)N3CCCCC3)c3ccccc23)c(OC)c1 stands at -5%
# VACV mCherry inh result of O=c1[nH]c(NC2CCN(S(=O)(=O)c3ccccc3C(F)(F)F)CC2)nc2c1CCCC2 stands at -22%
# VACV Venus inh result of CCC(=O)N1CCc2cc(S(=O)(=O)NCCC(=O)NCc3ccc(OC)cc3)ccc21 stands at -13%

# The listing continues.
molecule | VACV Venus inh | VACV mCherry inh
CSc1nn(CC(=O)Nc2ccc(C)cc2C)c(N)c1S(=O)(=O)c1ccc(Cl)cc1 | -10% | -19%
COc1ccc(NS(=O)(=O)c2ccc3c(c2)CCC(=O)N3)cc1O | -5% | -23%
CC(=O)c1cc(-c2ccccc2)[nH]c1N1CCCC1 | -9% | i
COc1ccccc1NC(=O)c1ccc2[nH]c(C)cc(=O)c2c1 | -10% | -6%
O=C(COC(=O)CNS(=O)(=O)c1ccc(F)c(F)c1F)Nc1ccc(OC(F)F)cc1 | -15% | -2%
Cc1csc(NC(=O)CCCC(=O)c2ccccc2)n1 | -13% | i
CCOc1ccc(C(C)NC(=O)c2cccc(F)c2)cc1 (centres undefined) | -15% | -21%
O=C(NCCc1ccccc1)C1CCN(S(=O)(=O)N2CCCC2)CC1 | -3% | i
CCOc1ccccc1NC(=O)Cn1cc(C(=O)c2ccc(Cl)cc2)c(=O)c2ccc(C)nc21 | -9% | -7%
O=C(Cn1c2[n+](c3ccc(C(F)(F)F)cc31)CCCCC2)Nc1ccc(Br)cc1 | 1% | i

# Profiles from above. Order of screens: VACV Venus inh	VACV mCherry inh
# Results for `O=C1CN(C(=O)CNC(=O)c2cccc(Cl)c2)c2ccccc2N1` = -13%	-26%
# Results for `COc1ccc(NC(=O)c2ccc(=O)oc2)cc1` = -14%	-6%

# Additional entries:
molecule | VACV Venus inh | VACV mCherry inh
O=C(CN1CCN(Cc2ccc(Cl)cc2)CC1)N/N=C/c1cccc(F)c1 | -3% | -13%
Cc1ccc(NC(=O)Cn2c(=O)n(CC3CCC(C(=O)NC(C)C)CC3)c(=O)c3sccc32)cc1 (centres undefined) | -12% | 0%
CC(=O)NC(=S)Nc1ccccc1C(=O)NC1CCCCC1 | 1% | -9%
COCc1nnc(NC(=O)C2CC(=O)N(CCc3ccc(F)cc3)C2)s1 (centres undefined) | -13% | -15%
COc1ncnc2c1ncn2CCCN1CCN(Cc2cccc3ccccc23)CC1 | -19% | ?
Cc1nc2sc3c(c2c(=O)n1/N=C/c1ccco1)CCCC3 | -9% | i
CC(C)=C1C2CCC1C1C(=O)N(NC(=O)COc3ccc(C(C)(C)C)cc3)C(=O)C21 (centres undefined) | -25% | -6%
CN(C)c1ccc(N=Nc2ccnc3ccccc23)cc1 | -12% | i
CC(C)(CN1CCc2ccccc2C1)NS(=O)(=O)c1ccc(Cl)cc1 | -5% | -22%
CCCCNC(=O)Cn1nc([N+](=O)[O-])c([N+](=O)[O-])c1C | 3% | -5%
COc1ccc(CCNC(=O)COC(=O)C23CC4CC(CC(Br)(C4)C2)C3)cc1 | -3% | -13%
Cc1cc(C)c(C#N)c(SCC(=O)CC(=O)OC(C)C)n1 | -9% | .
O=S(=O)(Nc1cccc(S(=O)(=O)N2CCCC2)c1)c1cccs1 | -9% | -21%
Cn1ncc2cc3c(Nc4ccc(Cl)cc4)cccc3nc21 | 1% | 13%
COc1ccccc1/C=N/NC(=O)CC(=O)NCc1ccccc1 | -10% | -14%
C=CCN(Cc1nc(-c2cc(OC)ccc2OC)oc1C)C1CCS(=O)(=O)C1 (centres undefined) | -11% | i
O=C(O)c1cc(S(=O)(=O)N2CCCCC2)ccc1N1CCCCC1 | -13% | i
O=C(Nc1ccccc1)c1c(O)[nH]c(=S)[nH]c1=O | 4% | i
Cc1ccc2[nH]c(=O)cc(C(=O)OC(C)C)c2c1 | -15% | -9%
CC(=O)Nc1ccc(CNc2nc3cc(-c4cccc(C(F)(F)F)c4)sc3c(=O)n2C)cc1 | ? | -8%
O=C(Nc1cc(S(=O)(=O)N2CCCCC2)ccc1O)c1ccccc1NS(=O)(=O)c1ccc(F)c(F)c1 | -20% | i
O=C(CCCn1cc([N+](=O)[O-])cn1)Nc1ccc2c(c1)OCO2 | 4% | -21%
O=C(CSc1nc2ccsc2c(=O)n1Cc1ccc(C(=O)O)cc1)NCc1ccco1 | -7% | -12%
O=C(N/N=C/c1cn(-c2ccccc2)nc1-c1cc2ccccc2o1)c1ccncc1 | -29% | -25%
Clc1cccc(NCc2nnc(SCc3ccccc3Cl)o2)c1 | -15% | -2%
Cc1[nH]c(=O)c(C#N)cc1-c1ccccc1 | -8% | -11%
COc1cc2nc(N3CCCN(C)CC3)nc(NC3CCN(C)CC3)c2cc1OC | ? | ?
Cc1cccc(OCCCn2c(CO)nc3ccccc32)c1 | 2% | 2%

# Source: PubChem BioAssay
